Source: PubChem (several laboratories)
MLL AF4-AF9 inh: MLL-AF4/AF9 protein interaction inhibition. P42568. AlphaScreen, biotin-AF4 peptide binding to FLAG-AF9. inhibition, % at 10 µM. 350,000 tested, 0.47% active. AID 651704;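 active = every replicate reaching a set inhibition limit, whatever the replicate mean, cut at about 25% in these data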;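 note: 0% = plate neutral control median and 100% = total signal loss; the record names both 10 and 1 µM as test concentration; the first replicate is given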
Target sequence (P42568 whole entry, looked up): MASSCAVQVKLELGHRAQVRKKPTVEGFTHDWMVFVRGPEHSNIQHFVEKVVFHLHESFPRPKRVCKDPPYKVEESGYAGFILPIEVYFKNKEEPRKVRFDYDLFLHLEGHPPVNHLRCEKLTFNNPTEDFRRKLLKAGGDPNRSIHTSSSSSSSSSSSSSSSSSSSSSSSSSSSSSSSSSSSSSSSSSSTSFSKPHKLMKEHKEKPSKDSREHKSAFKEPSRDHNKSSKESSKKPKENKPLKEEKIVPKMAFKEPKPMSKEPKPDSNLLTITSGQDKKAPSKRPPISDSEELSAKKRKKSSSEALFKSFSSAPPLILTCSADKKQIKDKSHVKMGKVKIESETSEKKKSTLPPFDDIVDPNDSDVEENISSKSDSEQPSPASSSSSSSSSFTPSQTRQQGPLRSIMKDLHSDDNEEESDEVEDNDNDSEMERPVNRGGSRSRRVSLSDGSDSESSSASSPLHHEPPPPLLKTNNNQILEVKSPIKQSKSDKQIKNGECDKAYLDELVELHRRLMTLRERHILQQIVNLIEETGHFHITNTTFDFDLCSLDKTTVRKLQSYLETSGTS
Bfl-1 A1 inh: inhibitors of the anti-apoptotic protein A1, read as caspase activation | MEF A1-2A-BIM cells, Caspase-Glo 3/7 luminescence, 3 h; percent of clofoctol response, vehicle zero | caspase activation, % (test concentration not listed) | 330,000 tested, 0.066% active | AID 2462;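 active = over half of replicate activation scores above 10%, or exactly half above 10 with the replicate mean above 10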;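 note: wells of about 30 µL received 50 nL stock; many hits fall short of the cut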
T cruzi repl: T. cruzi replication inhibition | T. cruzi beta-gal in NIH3T3, luminescence, 90 h | inhibition, % (test concentration not listed) | 300,000 tested, 1.4% active | AID 1885;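 active = mean inhibition across valid replicates above about 55%, limit read from the data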;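 note: signal also drops with host cell toxicity which is not excluded here; 0% = plate median of DMSO wells and 100% = zero luminescence signal; higher percent means less beta-gal luminescence so fewer parasites; stock transfer was 50 nL into about 50 µL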
Beta apoptosis: beta cell apoptosis inhibition | INS-1E cytokine-induced death, ATP luminescence, 48 h; percent of positive-control rescue, neutral wells zero | AID 435005 | protection from apoptosis, % (test concentration not listed) | 300,000 tested, 0.8% active;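 active = all replicates at 75% or more, or half of them and the mean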;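 note: 0% = cytokine-treated negative control wells and 100% = positive control rescue; higher means more ATP so stronger rescue from cytokine killing; wells of about 40 µL received 100 nL stock; the first replicate is given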
Ecoli growth: inhibitors of Escherichia coli growth; OD600, 23 h; stronger effect = lower value; OD600 absorbance (no concentration beside the values); 330,000 tested, 0.21% active;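 active = OD600 absorbance below the run mean of sample wells minus 3.6 SD, in any replicate, cut at about 0.56 in these data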;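 note: stock transfer was 300 nL into about 60 µL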
FGF22 binding: FGF22 (human) thermal shift binding | Q9HCT0 | recombinant FGF22 thermal shift, SYPRO orange fluorescence; percent of sucrose octasulfate shift, DMSO zero | calls only at 9.99 µM | 340,000 tested, 1.5% active | AID 651658;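 active = melting point raised past a set limit in the mean and every replicate; three in four hits are not shown here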
Target sequence (Q9HCT0 whole entry, looked up): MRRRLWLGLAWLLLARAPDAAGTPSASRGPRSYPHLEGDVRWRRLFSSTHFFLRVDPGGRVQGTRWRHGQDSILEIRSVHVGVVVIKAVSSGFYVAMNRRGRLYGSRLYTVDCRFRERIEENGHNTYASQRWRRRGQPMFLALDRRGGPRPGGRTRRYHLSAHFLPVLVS
UCH37 DUB inh: human UCH37 deubiquitinating enzyme inhibition | Q9Y5K5 | purified proteasome/UCH37, Ub-AMC cleavage fluorescence | inhibition, % (test concentration not listed) | 330,000 tested, 0.33% active;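 active = mean of two replicates above 20%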;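 note: 0% = compound-free wells with enzyme and 100% = wells lacking proteasome; stock transfer was 100 nL into about 20 µL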
Target sequence (Q9Y5K5 whole entry, looked up): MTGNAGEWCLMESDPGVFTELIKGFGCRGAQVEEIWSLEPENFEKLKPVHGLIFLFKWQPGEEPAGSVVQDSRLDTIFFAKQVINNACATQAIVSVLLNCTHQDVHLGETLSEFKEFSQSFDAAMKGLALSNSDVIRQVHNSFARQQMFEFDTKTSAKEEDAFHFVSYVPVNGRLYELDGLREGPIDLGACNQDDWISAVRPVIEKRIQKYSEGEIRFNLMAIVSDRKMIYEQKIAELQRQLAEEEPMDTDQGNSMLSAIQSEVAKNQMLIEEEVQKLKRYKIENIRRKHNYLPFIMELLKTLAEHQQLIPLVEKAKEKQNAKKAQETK
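Assay system: Proteasome-bound UCH37. Buffer or medium: pH 7.4 Tris-HCl (50 mM) with ovalbumin, ATP-MgCl2, DTT. Incubation: 30 min preincubation with enzyme, 25 min cleavage at room temperature. Measured by: fluorescence, ex 355 nm, em 460 nm. Read-out basis: percent inhibition. Control set: wells without proteasome as full block, compound-free enzyme plus substrate as uninhibited.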
rRNA inh HTS: inhibitors of bacterial rRNA selective over humanized ribosomes. AID 720706. E. coli WT GFP vs humanized-ribosome RFP mutants, fluorescence, 24 h; stronger effect = lower value; DMSO median 0, no signal -100. GFP signal change (wild-type ribosome), % (no concentration beside the values). 350,000 tested, 1.6% active;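 active = significant combined selectivity score with lowered wild-type GFP, culture density cut under 30%, mutant RFP and density less affected; inactive = any of these conditions unmet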; note: one replicate is shown; some compounds called inactive have numbers as strong as hits
rRNA inh HTS OD600: recorded beside rRNA inh HTS, whose call it bears; OD600 change, %; measured here: OD600 growth;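 optical density of the mix in the first replicate; 0 = DMSO median and -100 = no signal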
rRNA inh HTS RFP: second read-out of rRNA inh HTS, no call of its own (marks repeat the call); RFP signal change, %; measured here: RFP humanized mutant strains;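 first replicate; 0 = DMSO median and -100 = no signal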
The depositor's hits bear a star; i = inactive; nt = no result given.

SMILES	MLL AF4-AF9 inh	Bfl-1 A1 inh	T cruzi repl	Beta apoptosis	Ecoli growth	FGF22 binding	UCH37 DUB inh	rRNA inh HTS	rRNA inh HTS OD600	rRNA inh HTS RFP
O=C(CSCc1ccccc1)N1CCN(S(=O)(=O)c2ccc(F)cc2)CC1	-0.6	-0.3	-2	2	0.68	i	4.6	-3	-11	-0.7
CC1(c2nnc(-c3ccncc3)o2)CC(c2cccnc2)=NO1 (centres undefined)	2.4	-0.3	-22	-9	0.7	i	0.5	4	8	0.2
CN1CCN(C2Cc3cc(F)ccc3Sc3ccc(Cl)cc32)CC1 (centres undefined)	12	0.6	34	13	0.58	nt	3.2	-54	-78	-17
O=S(=O)(c1ccccc1)N1CCC(O)(CSc2ccc(Cl)cc2)CC1	nt	-0.1	19	32	0.68	nt	0.9	nt	nt	nt
O=C1OC[C@H]2CCCN2C(=O)[C@@H](CC(=O)N(CCO)Cc2ccccc2)C/C=C\C[C@H]1Cc1ccc(F)cc1	2.7	1.1	nt	-8	0.68	i	1.8	-10	-13	0.8
Cc1cccc(NC(=O)CCc2ccccc2)c1C	-2.8	-1.2	-5	-10	0.59	i	1.0	11	15	3.0
COc1ccc(NC(=O)NNC(=O)c2ccccc2-n2cccc2)cc1OC	5.9	-0.5	-11	-10	0.71	i	3.4	-16	-11	-1.4
O=C(COC(=O)c1ccc2ccccc2c1)NCCCc1ccccc1	-0.9	0.0	-11	-10	0.68	i	-1.0	13	11	0.7
CCCN1C(=O)c2ccccc2NC1c1ccc(O)c(OCC)c1 (centres undefined)	1.2	0.4	-3	1	0.69	i	-251	-6	-16	-13
Cc1cc(C)c(N=C2CCCN2Cc2ccccc2)c(C#N)c1	nt	0.8	0	2	0.64	nt	1.4	nt	nt	nt
O=C(N/N=C/c1ccc(O)cc1)c1cc(-c2ccc3c(c2)OCO3)n[nH]1	1.1	0.5	18	11	nt	i	nt	-16	3	-2.0
CCOC(=O)CSc1nc2cc(OC)ccc2cc1C#N	nt	-0.5	-3	-2	0.7	nt	-22	nt	nt	nt
CC(C)N(c1nnc(N)s1)C(C)C	nt	0.7	2	-2	0.7	nt	4.6	nt	nt	nt
O=C(c1ccccc1Cl)N1CCC(O)(c2cccnc2)CC1	-2.0	1.0	-31	-5	0.67	nt	1.1	17	15	3.5
C=C(C)C(=O)Nc1cccc(C2=NOC3(C2)C[C@@H](C(N)=O)N(C(=O)C(=C)C)C3)c1 (some centres undefined)	-60	-0.3	-9	6	nt	i	1.5	12	10	13

Fetched one by one from above (two):
SMILES	MLL AF4-AF9 inh	Bfl-1 A1 inh	T cruzi repl	Beta apoptosis	Ecoli growth	FGF22 binding	UCH37 DUB inh	rRNA inh HTS	rRNA inh HTS OD600	rRNA inh HTS RFP
CCCN1C(=O)c2ccccc2NC1c1ccc(O)c(OCC)c1 (centres undefined)	1.2	0.4	-3	1	0.69	i	-251	-6	-16	-13
CCOC(=O)CSc1nc2cc(OC)ccc2cc1C#N	nt	-0.5	-3	-2	0.7	nt	-22	nt	nt	nt

Next structures follow.
SMILES	MLL AF4-AF9 inh	Bfl-1 A1 inh	T cruzi repl	Beta apoptosis	Ecoli growth	FGF22 binding	UCH37 DUB inh	rRNA inh HTS	rRNA inh HTS OD600	rRNA inh HTS RFP
CCOc1ccc(S(=O)(=O)NCCC(=O)OCC(=O)c2ccc[nH]2)cc1	0.1	0.5	-18	3	0.62	i	2.1	5	-1	3.8
Cc1ccnc(NC(=O)c2cnc(Cl)c(Cl)c2)c1	-0.1	-0.2	-8	-40	0.68	i	2.5	-3	5	-1.9
Cc1cc(O)c(C(C)C)cc1NC(=O)c1ccccc1Cl	4.5	0.4	20	-6	0.72	i	1.1	-12	-51	-7.5
COc1ccc(/C=N/n2c(=O)[nH]c3c([nH]c4ccc(F)cc43)c2=O)cc1CN1CCCCC1	-1.2	0.3	-4	0	nt	nt	nt	-6	-2	-1.3
CC(=O)Nc1ccc(OC(=O)C(CCS(C)(=O)=O)N2C(=O)c3ccccc3C2=O)cc1 (centres undefined)	nt	2.0	2	2	0.71	nt	0.7	nt	nt	nt
NS(=O)(=O)c1ccc(NC2=CC(=O)C(=O)c3ccccc32)cc1	5.5	0.8	9	64	nt	i	nt	-23	-23	-4.9
COc1ccccc1C(=O)Nc1ccc2ccccc2c1	-5.0	-3.5	5	-3	0.65	i	4.5	-33*	-24*	-4.2*
CC(=O)c1ccc(NC(=S)NNC(=O)NC2CCCCC2)cc1	-3.4	-0.1	-12	-5	0.71	i	2.9	5	9	0.6
Cc1ccc(-n2nc3c(=O)n(CCCC(=O)NCc4ccccc4Cl)nc(C)c3c2C)cc1	-2.1	-0.8	9	2	0.72	i	1.1	1	9	0.4
O=C(OCCN1CCOCC1)c1ccc(OCCN2CCOCC2)cc1	nt	0.5	9	nt	0.7	nt	2.7	nt	nt	nt
CN(c1ccccc1)S(=O)(=O)c1cc(C(=O)N2CCN(c3ncccn3)CC2)ccc1Cl	0.8	-0.5	nt	-3	0.67	i	-0.7	-15	-29	-2.1
CC(C)(C)C(=O)COC(=O)c1cc(-c2cccnc2)nc2ccccc12	4.9	-0.3	2	3	0.68	i	-17	-37	-66	2.8
O=C1c2ccccc2C(=O)C1c1ccc(O)cc1	-0.4	-5.8	-35	3	0.69	i	-23	-19	-22	-2.6
O=C(O)CCN1C(=O)c2ccc(NC(=O)COc3ccccc3)cc2C1=O	-1.4	0.4	-14	-19	0.62	i	-3.5	0	0	-1.9
CC(=O)Nc1ccc(NC(=O)CCC(=O)OCC(=O)c2cccc([N+](=O)[O-])c2)cc1	-1.6	0.0	-16	-4	0.69	i	1.6	18	12	2.1
CC1CN(C(=O)c2ccc(CNS(=O)(=O)c3cccc(C(F)(F)F)c3)cc2)CC(C)O1 (centres undefined)	nt	0.2	0	4	0.69	nt	2.7	nt	nt	nt
CN1CCN(CC(=O)Nc2ccc(OC(F)(F)F)cc2)CC1	4.5	-0.8	21	-2	0.68	i	6.2	13	15	-2.6
NC(=O)CC(NC(=O)c1ccc(Cl)cc1)C(=O)NCCc1ccc(S(N)(=O)=O)cc1 (centres undefined)	-0.5	-0.3	-17	-8	0.68	i	-3.2	6	10	1.9
Cc1nnc(NC(=O)CCS(=O)(=O)Cc2ccccc2)s1	-1.1	0.3	-8	-15	0.69	i	6.3	7	9	-1.6
CCCN1CNC(=S)N(c2ccccc2OC)C1	nt	-0.9	-54	-5	0.65	nt	0.8	nt	nt	nt
COc1ccccc1P(=O)(c1ccccc1)c1ccccc1	-12	1.1	-2	-8	0.68	i	1.0	12	8	-0.1
CC1(C(=O)Nc2cccc3ccccc23)CC1(Br)Br (centres undefined)	4.2	1.0	-3	nt	0.63	nt	-27	-30	-29	-9.8
COc1cc(/C=C2\C(=O)N(c3ccc(S(N)(=O)=O)cc3)N=C2C)ccc1OC(=O)c1ccco1	0.2	-0.4	-7	0	0.7	i	4.9	8	12	1.4
COC(=O)CSc1ccc(S(=O)(=O)N2CCC(C)CC2)cc1[N+](=O)[O-]	nt	2.0	-8	-14	0.72	nt	3.0	nt	nt	nt
Cc1sc2ncn(CC(=O)NCc3ccco3)c(=O)c2c1-c1ccc(F)cc1	0.1	-0.5	-4	-7	0.7	i	-1.5	4	2	0.4
Cc1ccc(-c2c(C(=O)N(C)Cc3ccccc3)oc(=O)c3ccccc23)cc1	nt	1.3	28	-6	0.72	nt	3.4	nt	nt	nt
CCCCCCN(C(=O)CCCCCN1C(=O)NC(c2ccc([N+](=O)[O-])cc2)C(C(=O)OCc2ccccc2)=C1C)C(C(=O)NCCCC)c1ccc(OCC(=O)OC)c(C(=O)OC)c1 (centres undefined)	5.7	0.0	34	-1	nt	i	nt	8	10	-0.7
COC(=O)c1[nH]c2ccc(F)cc2c1NC(=O)CCN1CCN(C(=O)c2ccco2)CC1	-3.6	nt	-2	nt	0.65	i	-17	-8	-12	4.0
O=C(NNC(=S)NC1CCCCC1)c1cccc(S(=O)(=O)Nc2ccccc2Cl)c1	7.1	0.8	2	7	0.71	i	5.4	-23	-38	2.5
C/C(CC(=O)Nc1ccc(C)c(Cl)c1)=N\NC(=O)c1ccco1	0.0	-0.1	-2	nt	nt	nt	nt	-29	-35	23
O=[N+]([O-])c1cccc(-c2ccc(/C=N/NC(=S)Nc3cccc(F)c3)o2)c1	5.0	0.4	-19	31	nt	i	nt	-5	0	1.8
CCn1c(SCC(=O)c2c(N)n(C3CC3)c(=O)[nH]c2=O)nnc1-c1ccoc1C	0.7	1.7	nt	-8	0.72	i	4.1	5	9	0.9
CC(C)(C)c1ccc(C(=O)Nc2ncn[nH]2)cc1	0.4	-9.0	-10	3	0.73	i	4.8	23	23	1.1
C=CCn1c(N)cc(=O)nc1SCC(=O)N1CCN(c2ccc(F)cc2)CC1	4.0	0.3	5	3	0.69	i	-0.2	6	5	3.3
CC(C)CC(c1nnnn1CC1CCCO1)N1CCN(Cc2ccc3c(c2)OCO3)CC1 (centres undefined)	nt	0.0	2	-2	0.67	nt	6.3	nt	nt	nt
CC(OC(=O)c1cccc(-n2cnnn2)c1)C(=O)NCc1ccccc1 (centres undefined)	-6.3	0.0	-14	-7	0.62	i	2.3	14	7	-1.4
N=c1c(C(=O)NC2CCCC2)cc2c(=O)n3ccccc3nc2n1C1CCCCC1	-1.2	-1.3	37	2	0.7	i	-377	37	18	7.6
CCOC(=O)CN(C)C(=O)CCc1nnc(-c2ccc(-c3ccccc3)cc2)o1	-1.4	0.6	-7	-9	0.67	i	3.5	9	6	4.5
O=C(COC(=O)CCc1ccc(S(=O)(=O)N2CCOCC2)cc1)NC1CCCCCC1	-80	-0.2	-5	1	0.69	i	1.7	1	3	4.3
CN(C)CCOCCOc1ccccc1-c1ccccc1	nt	0.4	0	0	0.72	nt	4.8	nt	nt	nt
COc1cc(/C=N/NC(=O)c2ccncc2)ccc1OC(C)=O	-0.5	0.4	-8	-1	nt	i	nt	16	5	1.1
CC(C)n1nc(C(=O)NNC(=O)c2ccc(OC(F)F)cc2)c2ccccc2c1=O	-2.2	0.1	nt	4	0.69	i	-1.8	-10	-12	-1.1
CN=C1SC(CC(=O)Nc2sc3c(c2C#N)CCCC3)C(=O)N1C (centres undefined)	nt	-0.3	10	-6	0.74	nt	1.7	-4	3	2.5
CC1=C(C(=O)OCCCBr)C(c2ccc3c(c2)OCO3)NC(=O)N1 (centres undefined)	nt	-0.7	1	-3	0.64	nt	2.3	nt	nt	nt
Cc1ccc(S(=O)(=O)NCC[C@@]2(C)C3CCC2(C)C(=O)C3)cc1 (some centres undefined)	0.2	0.5	-1	-5	0.71	i	0.8	-11	-11	-0.6
Cc1n[nH]c(=O)c2c(NC(=O)CSc3ccc(Br)cc3)oc(C)c12	-3.1	-0.2	-3	-13	0.61	i	1.4	-4	2	-0.8
Cc1ccc2cc(-c3noc(C4CCCO4)n3)c(=O)[nH]c2c1 (centres undefined)	10	0.8	1	nt	0.71	i	-138	3	3	-0.6

An excerpt; the hit share may differ from the screen's.
